NS1 inh: blocks influenza NS1 protein function; S. cerevisiae slowed by influenza A NS1, growth recovery by OD600; Potency, µM (titrated, usually from 46.1 µM), for inactives: at the highest dose activity, positive = more growth; 270,000 tested, 0.4% active; AID 2326; also: actives are rising curves; nearly all actives have a fitted effect of over 50% in size
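Growth recovery, yeast-based: influenza A NS1 expressed in S. cerevisiae causes slow growth, and suppressors are detected by OD600. The parent strain without NS1 is used as positive control.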
Cruzain inh Det: blocks cruzain activity in presence of Triton detergent. purified cruzain, Z-FR-AMC fluorescence, 0.01% Triton. 200,000 tested, 0.43% active. Potency, µM, without a hit: max response, negative = inhibition, hits mostly inhibitors; active = well fitted curve in the direction sought with a large enough effect; inconclusive = small, poorly fitted or top-dose-only effect, or another doubt; inactive = no such curve, though single readings can be large; an effect the other way counts as inactive or inconclusive;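 also: plate controls were neutral wells for no effect and buffer without enzyme for full effect; nearly all actives have a fitted effect of over 40% in size; top concentration of the series not given in the record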
Target sequence (P25779 123-467 limits assumed): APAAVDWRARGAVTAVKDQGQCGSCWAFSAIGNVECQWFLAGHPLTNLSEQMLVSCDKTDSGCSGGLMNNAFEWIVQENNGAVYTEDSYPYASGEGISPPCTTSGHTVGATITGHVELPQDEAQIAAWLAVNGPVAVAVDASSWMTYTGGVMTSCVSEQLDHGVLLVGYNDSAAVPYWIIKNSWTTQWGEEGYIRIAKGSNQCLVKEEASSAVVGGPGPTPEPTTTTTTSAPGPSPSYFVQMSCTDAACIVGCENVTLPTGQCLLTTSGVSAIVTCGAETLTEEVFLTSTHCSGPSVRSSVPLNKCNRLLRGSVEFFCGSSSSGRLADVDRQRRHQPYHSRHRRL
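In this qHTS format, compounds are incubated with 1.5 nM cruzain for 15 min at room temperature before 2 uM Z-FR-AMC is added. Release of AMC is followed at 360/450 nm, and progress is taken as the 60 s fluorescence difference.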
MARV entry inh: Marburg virus entry inhibition; Potency, µM (highest dose often 37.8 µM), inactives show at the highest dose activity change, negative = inhibition, actives largely listed as inhibitors; Marburg virus pseudotyped entry inhibition, cell reporter; control for the full effect not named in the record; about a third of the inactives were read at about 46 µM; 300,000 tested, 1.8% active; active = well fitted inhibition curve with a large enough effect; inconclusive = small, poorly fitted or top-dose-only effect, or effect the other way; inactive = flat fitted curve, though single readings scatter; tested in HEK293 cells; about a fifth of its hits are not listed in these tables; also: % is scaled to controls: 0 for no effect and ±100 for the full control effect; luciferase read-out
Cruzain noTriton: cruzain (T. cruzi) inhibition without detergent; P25779; purified cruzain, Z-FR-AMC fluorescence, no detergent; Potency, µM, for inactives: max response, negative = inhibition, usual class: inhibitors; 200,000 tested, 2.3% active; AID 1476; active = well fitted curve in the direction sought with a large enough effect; inconclusive = small, poorly fitted or top-dose-only effect, or another doubt; inactive = no such curve, though single readings can be large; an effect the other way counts as inactive or inconclusive;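 also: plate controls were enzyme without inhibitor for no effect and buffer without enzyme for full effect; nearly all actives have a fitted effect of over 40% in size; top concentration of the series not given in the record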
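Detergent-free condition (0.00005% Triton X-100) in acetate buffer pH 5.5 with DTT. 1.5 nM enzyme and compound were pre-mixed 15 min, then 2 uM Z-FR-AMC substrate added; reaction progress from fluorescence change between first and third reads (60 s).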
RE007 growth inh: less growth of the S. pombe RE007 Vpr strain; S. pombe RE007 Vpr strain, BacTiter-Glo ATP luminescence, 24 h; control for the full effect not named in the record; Potency, µM (top dose mostly 92.2 µM), for the others: at the highest dose activity change, negative = less growth; 360,000 tested, 0.21% active; active = well fitted falling curve with a large enough effect; inconclusive = small, poorly fitted or top-dose-only effect; inactive = no such curve, though single readings can be large or run the other way;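 also: % is scaled to controls: 0 for no effect and ±100 for the full control effect; nearly all actives have a fitted effect of over 50% in size; the assay follows cell death caused by Vpr and the record does not say whether a fall means rescue or toxicity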
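Fission yeast strain RE007, carrying one chromosomally integrated HIV-1 vpr copy, was seeded at OD 0.01 in PMG+AL medium with 23 nL pinned compound. After 24 h at 30 °C and 99% humidity, viability was read by BacTiter-Glo luminescence.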
SARS PLpro yeast: SARS-CoV PLP inhibition in yeast; S. cerevisiae expressing SARS-CoV PLpro, growth rescue; control for the full effect not named in the record; Potency, µM (top dose mostly 32.9 µM), without a hit: top-dose activity, positive = growth rescue; 330,000 tested, 0.19% active; also: 0% is about no effect; nearly all actives have a fitted effect of over 55% in size; growth read by luminescence after 48 h
LASV entry inh: Lassa virus entry inhibition | 300,000 tested, 1.2% active | AID 540256 | Potency, µM (series often up to 37.9 µM), for inactives: at the top dose activity change, negative = inhibition, actives largely listed as inhibitors | Lassa virus pseudotype entry inhibition, cell reporter; control for the full effect not named in the record; active means well fitted inhibition curve with a large enough effect; inconclusive means small, poorly fitted or top-dose-only effect, or effect the other way; inactive means flat fitted curve, though single readings scatter; tested in HEK293 cells; also: % is scaled to controls: 0 for no effect and ±100 for the full control effect; nearly all actives have a fitted effect of over 50% in size; luciferase read-out
StopGo reporter: lowers the luciferase signal of an FMDV 2A StopGo reporter. human cells with a luciferase reporter of 2A StopGo recoding; control for the full effect not named in the record. Potency, µM (highest dose often 57.9 µM), for inactives: at the highest dose signal change, negative = less light. 410,000 tested, 1.2% active; active = well fitted falling curve with a large enough effect; inconclusive = small, poorly fitted or top-dose-only effect; inactive = no such curve, though single readings can be large or run the other way; tested in HEK293T cells; also: % is scaled to controls: 0 for no effect and ±100 for the full control effect; nearly all actives have a fitted effect of over 45% in size; luciferase light after 4 h
* = called active by the depositor; ? = inconclusive; · = no result given; & = joins results of further samples; [ ] = another dose, or the depositor's remark. Unless noted, calls follow the shape of the dose curve; as a rule, active means well fitted rising curve with a large enough effect; inconclusive means small, poorly fitted or top-dose-only effect; inactive means no such curve, though single readings can be large or run the other way. Potency is read from the fitted curve at half-maximal effect.

SMILES | NS1 inh | Cruzain inh Det | MARV entry inh | Cruzain noTriton | RE007 growth inh | SARS PLpro yeast | LASV entry inh | StopGo reporter
Cc1ccc(-c2ccc(/C=N/NC(N)=S)o2)cc1 | -57% | · | ? | · | ? | 5% | ? | 34%[activator]
COc1cc(C(=O)NNC(=S)NC(=O)/C=C/c2ccccc2)cc(OC)c1OC | 6% | · | -17%[46.1 µM] | · | -17% | 0% | ? | -14%
COc1cccc(C(=O)Nc2cc3c(cc2Cl)OCCCO3)c1 | -27% | -1.3% | ? | -29% | -3% | 3% | -30% | -4%
CN(C(=O)C(=O)Nc1ccc2nc3n(c(=O)c2c1)CCCCC3)c1cccc(C(F)(F)F)c1 | · | -3.3% | 2%[46.1 µM] | ? | · | · | 8%[46.1 µM] | 0%
CCCC(=O)Nc1ccccc1NC(=O)c1ccc(OC(C)=O)cc1 | 1% | · | -2%[46.1 µM] | · | -9% | 2% | 14%[46.1 µM] | -10%
CCc1ccc(C(=O)C23CN4CN(CN(C4)C2)C3)cc1 | 4% | -0.5% | 18% | 7% | 6% | 8% | 11% | 4%
O=C(NCCCN1CCOCC1)c1ccco1 | 2% | -0.3% | -7% | 1% | 0% | 8% | -1% | 4%
COc1cc(-c2n[nH]c(=S)n2-c2ccccc2C(F)(F)F)cc(OC)c1OC | 0% | · | -3% | · | 19% | 1% | 7% | -8%
O=C(CS(=O)(=O)c1ccccc1)Nc1nccs1 | 5% | · | 2%[46.1 µM] | · | 11% | 2% | 11% | -3%
O=c1[nH]c2ccccc2n1Cc1ccccc1 | -5% | -3.2% | · | 5% | 11% | -7% | · | -18%
CCOc1ccc(Br)cc1S(=O)(=O)Nc1ccc(C(=O)OC(C)C(=O)N(C)c2ccccc2)cc1 (stereo unspecified) | ? | -6.1% | ? | 27% | 10% | 5% | -20% | -5%
CCCCN(C(=O)Cc1ccc(S(=O)(=O)N2CCOCC2)s1)c1c(N)n(CC(C)C)c(=O)[nH]c1=O | · | · | 0%[46.1 µM] | · | -13% | 3% | 17% | -10%
CCC(=O)N(CC(=O)Nc1sc(C)c(C)c1C(N)=O)Cc1ccc(F)cc1 | -4% | · | -20%[46.1 µM] | · | -2% | 2% | -16% | 0%
CC1CCc2c(sc(NC(=O)c3ccc(Cn4cc(Br)cn4)o3)c2C(N)=O)C1 (stereo unspecified) | -12% | -7.5% | 2%&-3% | -10% | -14% | -7% | 24% | ·
CN(Cc1ccc(Cl)c(Cl)c1)C(=O)CN1C(=O)NC2(CCCC2)C1=O | · | · | ? | · | -18% | -2% | 1% | -22%
CCCCC(=O)NC(c1ccc(Cl)cc1Cl)c1ccc2cccnc2c1O (stereo unspecified) | -109% | · | ? | · | -21% | ? | 7.1µM* | 10%
CC(=O)Nc1ccc(NC(=O)c2ccc(C3SCC(=O)N3CCc3ccccc3)cc2)cc1 (stereo unspecified) | 3% | -8.9% | ? | 28% | 1% | 20% | -16% | ?
CCOc1ccccc1C(c1c(O)nc(SC)[nH]c1=O)c1c(O)nc(SC)[nH]c1=O | · | · | -2%[46.1 µM] | · | 4% | · | -3%[46.1 µM] | -13%
COc1ccccc1CNC(=O)Cn1cc2c(n1)CCCC2 | ? | 2.0% | · | -4% | 20% | 0% | · | -3%
COc1cccc(CNC(=O)c2ccc(OCC(=O)N3CCOCC3)c(OC)c2)c1 | · | · | -5%[46.1 µM] | · | 2% | 5% | 2% | -10%
COc1ccc(-c2onc(C)c2C)cc1S(=O)(=O)N1CCN(c2cc(C)ccc2C)CC1 | · | 1.8% | · | -5% | · | · | -11%[46.1 µM] | -23%
COC(=O)CC1C(=O)NCCN1Cc1cn(-c2ccc(C)cc2)nc1-c1cccc(C)c1 (stereo unspecified) | 4% | · | 0%[46.1 µM] | · | 7% | 1% | -15%[46.1 µM] | 3%
Cc1c(C)c(C)c(S(=O)(=O)N2CCNCC2)c(C)c1C | · | · | ? | · | -10% | -1% | -5% | 25%
N#CCCn1cc(C(=O)Nc2ccc(F)cc2)c(-c2ccc([N+](=O)[O-])cc2)n1 | -1% | · | -13% | · | 1% | 0% | ? | -16%
COC(=O)C1(O)CC(C(C)C)=NN1C(=O)c1ccc(Cl)cc1 (stereo unspecified) | 6% | 3.1% | -1% | 11% | -14% | 2% | 1% | -19%
OC(Cn1nnc2ccccc21)Cn1c(C(F)(F)F)nc2ccccc21 (stereo unspecified) | 3% | -3.1% | -19% | 8% | -2% | 1% | -15% | -17%
Cc1nc(Cl)cc(CS(=O)(=O)c2ccc(Cl)cc2)n1 | · | · | -2%[46.1 µM] | · | 1% | -1% | -8% | 10%
CCc1nc(SCC(=O)NC2CC2)c2c(C)c(C)sc2n1 | -9% | · | -6%[46.1 µM] | · | -11% | -2% | 7% | 2%
O=C(O)c1ccc([N+](=O)[O-])c([N+](=O)[O-])c1 | · | · | -3%[46.1 µM] | · | 7% | · | ? | ?
O=c1cc(CNC2CCCCC2)c2ccccc2[nH]1 | 4% | 0.7% | 9% | 0% | 13% | 3% | -2% | -6%
O=C(c1cccc(F)c1)N1CCN(Cc2ccco2)CC1 | 7% | 4.1% | 38% | -8% | 1% | 1% | ? | -21%
CCOC(=O)Cc1csc(NC(=O)C(C)(C)CC)n1 | 3% | 4.4% | 3% | 5% | 3% | -1% | -2% | ·
Cc1cc(NC(=O)CSCCc2ccncc2)no1 | ? | -2.2% | -9% | 2% | 2% | -6% | 0% | -18%
C[C@H]1CCC[C@@H](O)CCC/C=C/c2cc(O)cc(O)c2C(=O)O1 | -9% | -5.8% | ? | -4% | 1% | 2% | -50%[14.3 µM] | 3.5µM*
COc1ccc(CCNC(=O)CCn2c(=O)c3ccccc3n(CC(=O)Nc3ccc(C)cc3C)c2=O)cc1OC | · | -2.7% | 1%[46.1 µM] | -2% | · | · | -25%[46.1 µM] | -6%
CCOC(=O)c1c(S(=O)(=O)N2CCCC(C(=O)N3CCN(c4cc(C)ccc4C)CC3)C2)c(C)n(C)c1C (stereo unspecified) | · | 1.0% | · | -2% | · | · | 6%[46.1 µM] | -17%
COCCOC(=O)C1=C(C)N=C2SCCC(=O)N2C1c1ccc(OC(=O)c2ccco2)cc1 (stereo unspecified) | 2% | -7.2% | 14%&14% | 9% | 1% | 3% | 11% | -22%
COC(=O)C1=C(C)NC(C)=C(C(=O)OC)C1C(=O)OCc1nc2cc(C(=O)OC)ccc2c(=O)[nH]1 | · | · | -3% | · | -1% | 10% | -5% | -4%
Cc1cc(C)n2nc(C(=O)OCC(=O)c3cc(C)n(C)c3C)nc2n1 | 4% | -0.6% | 3% | 2% | -7% | -8% | -28% | 6%
C=C(C)CN1C(=O)C2(OCCO2)c2cc(Br)ccc21 | · | · | 7%[46.1 µM] | · | 11% | · | -2% | 20%
O=C(NC1CC2CCCC(C1)N2C(=O)Nc1ccccc1)C1CC1 (stereo unspecified) | 2% | · | 14%[46.1 µM] | · | 10% | -2% | 11%[46.1 µM] | 41%[activator]
Cc1cccc(N2CCN(C(=O)c3cccn4c(=O)c5cc(Cl)ccc5nc34)CC2C)c1 (stereo unspecified) | · | 1.2% | · | -1% | · | · | 1%[46.1 µM] | -20%
COC(=O)c1sccc1NC(=S)N1CCCC(C)C1 (stereo unspecified) | -49% | -3.7% | -6% | -6% | -29% | -14% | 2% | -16%
CCCn1c(C)cc(C(=O)CSc2nnc3n(CCC)c(=O)c4ccccc4n23)c1C | 3% | 2.8% | · | 5% | · | 9% | · | ·
N#Cc1ccc(OC(=O)Cc2ccsc2)cc1 | 11% | · | 24%[46.1 µM] | · | 9% | 4% | 15%[46.1 µM] | -2%
COc1cc(NC(=O)Nc2cccc(Cl)c2)c(OC)cc1NC(=O)CN1CCCCC1 | 12% | -3.3% | ? | 4% | 6% | 0% | ? | -33%
CCOc1ccc(C2c3[nH]c4ccccc4c3CCN2C(=O)Cn2cncn2)cc1 (stereo unspecified) | 5% | · | -18%[46.1 µM] | · | -5% | 1% | ? | -24%
O=C(/C=C/c1ccccc1)OCN1C(=O)c2ccccc2C1=O | -4% | · | -16%[46.1 µM] | · | 1% | -1% | ? | -21%
